High-throughput results deposited in PubChem BioAssay by National Center for Advancing Translational Sciences (NCATS).
VDR inhibitor = Inhibitors of the vitamin D receptor (VDR): qHTS | VDR-SRC2-3 peptide fluorescence polarization, 2 h | Potency, µM, for inactives: max response, negative = inhibition, hits mostly inhibitors | 0.93% of 400,000 active | AID 504847, 2011; active means well fitted inhibition curve with a large enough effect; inconclusive means small, poorly fitted or top-dose-only effect, or another doubt; inactive means no such curve, though single readings can be large or run the other way; further: series mostly up to about 120 µM
Target sequence (P11473 whole entry, looked up): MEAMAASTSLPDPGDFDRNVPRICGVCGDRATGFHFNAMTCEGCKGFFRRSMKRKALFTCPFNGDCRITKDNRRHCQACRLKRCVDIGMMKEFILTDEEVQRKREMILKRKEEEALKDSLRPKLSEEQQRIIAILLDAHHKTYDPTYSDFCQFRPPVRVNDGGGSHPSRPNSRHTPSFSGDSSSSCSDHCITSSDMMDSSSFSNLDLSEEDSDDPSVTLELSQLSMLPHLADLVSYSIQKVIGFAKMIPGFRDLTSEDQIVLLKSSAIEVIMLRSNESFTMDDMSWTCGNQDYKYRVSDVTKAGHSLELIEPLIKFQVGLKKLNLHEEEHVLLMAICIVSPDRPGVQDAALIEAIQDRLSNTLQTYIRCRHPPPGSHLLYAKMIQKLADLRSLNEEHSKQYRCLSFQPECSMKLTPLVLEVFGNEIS
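Fluorescence polarization assay measuring small-molecule disruption of VDR binding to the coregulator peptide SRC2-3. Compounds were pin-transferred (23 nl) into the reagent mix and incubated 2 h at room temperature before reading.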
An asterisk follows results filed as active; ? = inconclusive; [ ] = dose if it differs, or a comment. On the % scale 0 is the no-effect control and ±100 the full control effect; potency means the concentration at half of the fitted maximal effect. Only part of the results is shown. The share of hits here may be higher or lower than overall.

nr	Structure	VDR inhibitor
1	O=C(NCc1ccccc1CN1CCCC1)c1cc2ccccc2o1	18.7%
2	CCOC(=O)c1c(C)[nH]c(C(=O)COC(=O)c2ccc(N3CCCC3=O)cc2)c1C	0.2%
3	Cn1c(=O)c2c(nc(N/N=C/c3ccc(OC(=O)c4ccco4)cc3)n2Cc2ccccc2Cl)n(C)c1=O	5.5%
4	Cc1ccc(OCC(=O)Nc2ccc(Cl)c(-c3nc4ccccc4[nH]3)c2)cc1C	2.8%
5	COc1ccc(CCN(C)CC(O)c2ccccc2)cc1OC (centres undefined)	-22.3%
6	CCN1CCN(c2nnc(-n3cccc3C(=O)NCc3ccccc3OC)s2)CC1	8.3%
7	COc1ccccc1NC(=S)NC(C)=O	-1.5%
8	CCOC(=O)Cc1csc(NC(=O)Nc2ccc(C)cc2)n1	7.9%
9	CC1CCN(S(=O)(=O)c2ccc3c(ccn3CCC(=O)NCc3ccc(N(C)C)cc3)c2)CC1	5.8%
10	CC1=Nc2cc(C(=O)N3CCCC3)ccc2Sc2c(C)ccc(C)c21	-8.1%
11	COC(=O)c1sc(S(=O)(=O)Nc2c(C)nn(C)c2C)c(C(=O)OC)c1C	11.2%
12	COc1ccc(NC(=O)CN(C)C(=O)c2cccc(Oc3ccccc3)c2)cc1	-8.1%
13	O=C(OCC(=O)N1CCCc2ccccc21)c1ccc(Br)o1	4.8%
14	CO/N=C(/C)CCS(=O)(=O)c1ccccc1	-18.7%
15	COc1ccccc1N1CCN(CC(=O)Nc2ccc(C)c(F)c2)CC1	0.0%
16	Cc1ccccc1NC(=S)c1nc2ccccc2[nH]1	13.4%
17	O=C(O)Cc1cccc(=O)c(O)c1C(=O)O	10.5%
18	CCn1nc(C)c(NC(=O)CSc2nnc(-c3ccco3)n2C)c1C	-0.4%
19	CCC1(CC)Cc2ccccc2-c2[nH]c(=S)[nH]c(=O)c21	6.0%
20	Cc1cc(C)n2nc(C(=O)N/N=C/c3ccc(Cl)cc3)nc2n1	12.6%

Further compounds follow.
nr	Structure	VDR inhibitor
21	CNC(=O)CSc1nnc(CCc2ccccc2)n1-c1ccccc1	-4.1%
22	COc1ccc(NC(=O)Nc2ccccc2C)c(OC)c1	-4.3%
23	Cc1cnc(CNc2nc(-c3ccc4c(c3)OCO4)nc3ccccc23)cn1	-4.8%
24	Cc1cc(NC(=O)CSc2ncnc3c2cnn3-c2cccc(Cl)c2)no1	14.2%
25	O=C(c1ccc(-c2ccc([N+](=O)[O-])cc2Cl)o1)N1CCOCC1	0.3%
26	O=C(CNS(=O)(=O)c1ccc(Br)cc1Cl)OCC(=O)N1CCCC1=O	-3.1%
27	C=CC#CC1(O)CC(C)[N+](C)(C)CC1C (centres undefined)	-23.9%
28	Cc1ccc(OCC(O)CN2CCOCC2)c(C)c1 (centres undefined)	4.5%
29	O=c1cc(-c2cccc(F)c2)oc2ccccc12	3.3%
30	NC(=O)[C@@H]1CCCN1Cc1nc(Cc2ccccc2F)no1	5.5%
31	CCCCCCCN1C=CC(=O)CC1	4.2%
32	Cc1ccc(SC[C@H](C)CN2CC[C@H](C(C)(C)C)CCC2=O)cc1	-12.5%
33	COC(=O)Nc1sc2c(c1C(N)=O)CCC(C)C2 (centres undefined)	-10.9%
34	COC(=O)c1ccc2c(=O)n(-c3ccccc3)c(SCN3C(=O)c4ccccc4C3=O)nc2c1	7.0%
35	COc1cc2nc(SCc3cccc(Cl)c3)n3nc(CCn4nc(C)cc4C)nc3c2cc1OC	-23.6%
36	Cc1ccc(NCCC(=O)c2ccc(Cl)cc2)cc1	15.2%
37	O=C(Nc1ccccc1C(F)(F)F)N1Cc2ccccc2Oc2ncccc21	18.7%
38	COc1ccc(NC(=O)CSc2n[nH]c(N)n2)cc1OC	0.4%
39	Cc1ccc(S(=O)(=O)N(C)C)cc1NC(=S)NCCc1ccccn1	-9.8%
40	CCOc1ccc(CCNC(=O)CCc2nnc3ccc(N4CCOCC4)nn23)cc1	-6.8%

(listing goes on)
nr	Structure	VDR inhibitor
41	CCOc1ccc(/C=C2/C(=O)N(c3ccc(OC)cc3)C(=S)N2CC(=O)OC)cc1OCC	-5.3%
42	Nc1ncnc2oc(-c3ccco3)c(-c3ccco3)c12	-16.1%
43	CNC(=O)CCCc1nc(-c2ccccc2Cl)no1	-8.4%
44	CC(/C=C/c1cccc([N+](=O)[O-])c1)=N/NC(=O)c1cccnc1	-12.2%
45	CC(OC(=O)c1oc2ccccc2c1COc1ccccc1)C(N)=O (centres undefined)	-3.7%
46	CN1CCC(N(C)C(=O)Cc2ccccc2[N+](=O)[O-])CC1	-16.9%
47	CC(=O)OC(Cn1ccnc1)c1ccccc1 (centres undefined)	19.2%
48	COc1ccc(NC(=O)c2cc(S(=O)(=O)N(Cc3ccccc3)c3ccccc3)ccc2Cl)cn1	6.4%
49	CC1SC(c2ccc(F)cc2)N(CCc2ccccc2)C1=O (centres undefined)	6.8%
50	CCOC(=O)C1(Cc2ccccc2)CCN(Cc2cccc3nccnc23)CC1	18.8%
51	O=C(NCc1ccc(F)cc1)C1CCCN(C(=O)NCc2ccccc2)C1 (centres undefined)	11.6%
52	COc1ccc2c(c1)C(C)(CCN)C(=O)N2C (centres undefined)	-20.9%
53	Cc1ccc(NC(=O)CN2C(=O)C(c3ccc(C(C)(C)C)cc3)=NC2(C)C)cc1	-8.1%
54	CN1CC=C2C(C#N)=C(N)C(C#N)(C#N)C(c3ccsc3)C2C1 (centres undefined)	-4.6%
55	O=C(COc1cc(Cl)ccc1Cl)Nc1ccc2c(c1)CCC2	-1.2%
56	CSCC(C)N1CCC(CO)(CCCc2ccccc2)CC1 (centres undefined)	-3.4%
57	COc1ccccc1NC(=O)Cn1c(=O)n(Cc2ccco2)c(=O)c2oc3ccccc3c21	11.5%
58	CCCc1nnc(SCC(=O)N2CCCCC2C)n1CC1CCCO1 (centres undefined)	-14.9%
59	COc1ccccc1CNC(=O)N1CCN(c2ccccc2)CC1	0.8%
60	COc1ccc(C2C=C(c3ccc(Cl)c(Cl)c3)Nc3ncnn32)cc1 (centres undefined)	-6.6%

From compound 54 to 55, copied from above:
nr	Structure	VDR inhibitor
54	CN1CC=C2C(C#N)=C(N)C(C#N)(C#N)C(c3ccsc3)C2C1 (centres undefined)	-4.6%
55	O=C(COc1cc(Cl)ccc1Cl)Nc1ccc2c(c1)CCC2	-1.2%

Carrying on:
nr	Structure	VDR inhibitor
61	O=C(CS(=O)(=O)Cc1ccccc1)N1CCc2ccccc21	26.8%
62	O=C(CCc1ccccc1)Nc1cccc([N+](=O)[O-])c1	-13.2%
63	COc1ccccc1NC(=S)N/N=C/c1cccc(C)c1	?
64	Cc1cc(C)nc(NC(=O)c2cccs2)c1	-9.7%
65	O=C(O)CNC(=O)C1(NC(=O)OCc2ccccc2)CCCC1	0.4%
66	O=C(O)CNS(=O)(=O)c1ccc2c(c1)CCCC2	18.9%
67	Cc1ccc(C(=O)Nn2c(N)c(S(=O)(=O)c3ccc(C)cc3)c3nc4ccccc4nc32)cc1	4.9%
68	CN(Cc1ccccc1)C(=O)C1CCN(S(=O)(=O)c2ccc3c(c2)oc(=O)n3C)CC1	-2.0%
69	COc1cc(C=O)ccc1OCCCOc1ccccc1[N+](=O)[O-]	-7.2%
70	C=CCC1S/C(=N/N=C/c2cccs2)NC1=O (centres undefined)	8.5%
71	O=C(CC(=O)N/N=C\c1ccc(F)cc1)NCCc1ccccc1	-11.7%
72	Cc1nn(S(=O)(=O)c2ccccc2)c(C)c1Sc1ccc([N+](=O)[O-])cc1	32.2%[activator]
73	O=C(N/N=C/c1ccco1)c1cccc(S(=O)(=O)Nc2ccccc2Cl)c1	-6.0%
74	O=C(COc1ccc(Cl)cc1)Nc1ccc(-c2nc3ccccc3s2)c(O)c1	-3.9%
75	COc1ccc(/C=C/C(=O)Nc2ccc(S(=O)(=O)Nc3onc(C)c3C)cc2)cc1OC	5.2%
76	CNC(=O)CCCCC(=O)N/N=C/c1ccc(Cl)cc1Cl	1.4%
77	O=C(Cn1cc(Cl)ccc1=O)c1ccc(Cl)cc1	5.6%
78	CCCn1c(=O)c(C(=O)Nc2cccc(C)n2)c(O)c2ccccc21	1.2%
79	O=C(CSc1nnc(-c2ccccc2)c(-c2ccccc2)n1)Nc1ncc(Cl)cc1Cl	-1.1%
80	CCOC(=O)c1c(C)[nH]c(C(=O)CSc2nnc(Nc3ccccc3F)s2)c1C	3.6%

Other records follow:
nr	Structure	VDR inhibitor
81	N/C(=N\c1nc2ccccc2o1)NC(=O)c1ccccc1	-6.5%
82	O=C(NCC1CCCO1)Nc1cccc(Cl)c1 (centres undefined)	8.4%
83	CCOc1ccc(-c2nc3c(c(SCC(=O)Nc4ccccc4C)n2)Cc2ccccc2O3)cc1	1.8%
84	c1c[nH]c(CN2CCN(Cc3ncc[nH]3)CC2)n1	-1.3%
85	CC(C)(C)c1ccc(CN2CCN([C@H](c3ccccc3)c3ccc(Cl)cc3)CC2)cc1	-7.7%
86	CN(CC(=O)Nc1cccc(S(=O)(=O)N2CCCC2)c1)CC(=O)Nc1ccc(F)c(F)c1F	-15.8%
87	CCC1=Nc2cc(C(=O)NCCCOC(C)C)ccc2Sc2ccccc21	-7.0%
88	Cc1nc(SCc2c(F)cccc2Cl)n[nH]1	0.6%
89	Cc1ccc(S(=O)(=O)Nc2cccc(C(=O)NCC(c3ccccc3)N(C)C)c2)cc1F (centres undefined)	-7.8%
90	CCC(=O)N1CCc2cc(Br)cc(S(=O)(=O)NCCc3ccc(C)cc3)c21	7.9%
91	COc1cccc(C(=O)N(Cc2ccc3c(c2)OCO3)Cc2nc3ccccc3c(=O)[nH]2)c1	-17.6%
92	COc1ccc(OC)c(NC(=O)CSc2n[nH]c(-c3ccccc3Cl)n2)c1	9.0%
93	CC(=O)N1CCCC1c1nc2ccccc2n1Cc1ccccc1F (centres undefined)	12.4%
94	O=C(CCNC(=O)Cn1ccc2ccccc2c1=O)NCCN1CCc2ccccc2C1	-2.1%
95	Oc1ccccc1N=Nc1nc(-c2ccccc2)c(-c2ccccc2)[nH]1	-14.6%
96	CCN(CC)S(=O)(=O)c1cc(NC(=O)C(C)N2CCc3ccccc32)ccc1C (centres undefined)	4.0%
97	Cn1cc(Cl)c(C(=O)NC2CCCC2)n1	-16.8%
98	Cc1ccc(C(=O)Cn2nnc(-c3cccs3)n2)cc1	-10.4%
99	CCOc1ccc(NS(=O)(=O)c2ccc3[nH]cc(C(=O)N(C)Cc4ccccc4)c(=O)c3c2)cc1	14.0%
100	CCc1nnc(NC(=O)CSc2nc3[nH]ncc3c(=O)[nH]2)s1	11.8%

In a second layout: entries from further up.
(83) CCOc1ccc(-c2nc3c(c(SCC(=O)Nc4ccccc4C)n2)Cc2ccccc2O3)cc1
  VDR inhibitor: 1.8%

(97) Cn1cc(Cl)c(C(=O)NC2CCCC2)n1
  VDR inhibitor: -16.8%

Continuation:
nr	Structure	VDR inhibitor
101	CN1CCN(CCCN2c3ccccc3Sc3ccc(Cl)cc32)CC1	?
102	CCn1cnc2c([N+](=O)[O-])c(NS(=O)(=O)c3ccc(C)cc3)ccc21	-18.4%
103	O=C1C(Br)=Cc2cccc3cccc1c23	2.8%
104	O=c1oc(CCO)cc2ccccc12	3.6%
105	CCN(c1ccccc1)S(=O)(=O)c1ccc(C(C(=O)OC)C(=O)OC)c([N+](=O)[O-])c1	-14.7%
106	CC(C)OCCCNc1ccc(N2C(=O)CCCC2=O)cc1[N+](=O)[O-]	-14.1%
107	O=[N+]([O-])c1nn(-c2ccc3c(c2)OCCO3)n(O)c1=NCCC1=CCCCC1	-8.1%
108	CC1CC(C)CN(CCCNC(=O)CC2Oc3ccccc3NC2=O)C1 (centres undefined)	-1.3%
109	CC(Oc1ccccc1)C(=O)Nc1ccc(C(N)=O)cc1 (centres undefined)	0.6%
110	CCN(CC)c1ccc2cc(-c3nc(-c4cc5ccccc5oc4=O)cs3)c(=O)oc2c1	-2.5%
111	COC(=O)C(C)Sc1nnc(Cc2cc(=O)[nH]c(=O)[nH]2)n1-c1ccc(OC)cc1 (centres undefined)	-13.1%
112	CCOc1ccccc1-n1nnnc1SC(C)C(=O)OC (centres undefined)	-19.4%
113	CCCOc1cccc(C(=O)NCCCNC(=O)c2cccnc2)c1	7.6%
114	CCCCc1nnc(NC(=O)c2oc3ccccc3c2C)s1	2.9%
115	COc1ccccc1C=NN=Cc1ccccc1O	-7.6%
116	CCCCNS(=O)(=O)c1ccc(C)c(-c2nnc3c4ccccc4c(C)nn23)c1	-13.9%
117	Cc1c(Cl)c(C(=O)NNC(=S)Nc2ccc(F)cc2)nn1C	-7.3%
118	Cc1ccc(CN2CCN(c3cccc4[nH]ccc34)CC2)cc1	-11.7%
119	COc1cc(C(=O)OCC(=O)NC2CCCCCC2)ccc1OCC(C)C	-9.2%
120	CCOC(=O)C1(CCOc2ccccc2)CCN(Cc2cccn2-c2ncccn2)CC1	2.3%

The list continues:
nr	Structure	VDR inhibitor
121	CCOC(=O)c1cnc2ccc(C)cc2c1Nc1ccc(N(CC)CC)cc1	-25.1%
122	Cn1c(=O)n(CCCOc2ccc(Cl)cc2)c2ccccc21	-0.5%
123	Cc1ccc(CCNC(=O)c2nnn(-c3cc(C)cc(C)c3)c2N)cc1	-8.9%
124	COc1ccc(S(=O)(=O)Nc2nnc(C)s2)cc1	21.5%
125	OC(COCc1cccs1)CN1CCN(c2cccc(Cl)c2)CC1 (centres undefined)	-13.3%
126	COc1ccc(S(=O)(=O)N2CCC(C(=O)NCc3ccccn3)CC2)cc1Cl	23.7%
127	Cc1ccc(CSCc2nnc(SCC(=O)N3CCN(c4ccccc4)CC3)n2C)cc1	-8.5%
128	COC(=O)[C@H](COC(C)(C)C)NC(=O)O[C@H]1C(=O)c2ccc(OC)cc2O[C@@H]1c1ccc2c(c1)OCO2	9.2%
129	COc1cccc2c1cc1c(=O)n(CC(=O)NCc3ccc(C)o3)nc(C)n12	5.9%
